# Beta apoptosis: beta cell apoptosis inhibition. actives 0.8% (n = 300,000). AID 435005. INS-1E cytokine-induced death, ATP luminescence, 48 h; percent of positive-control rescue, neutral wells zero. protection from apoptosis, % (no concentration beside the values);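 active = all replicates at 75% or more, or half of them and the mean; inconclusive = half reach 75% but not the mean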;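 also: 0% = cytokine-treated negative control wells and 100% = positive control rescue; higher means more ATP so stronger rescue from cytokine killing; wells of about 40 µL received 100 nL stock; the first replicate is given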
# A1 inh: inhibitors of the anti-apoptotic protein A1, read as caspase activation | MEF A1-2A-BIM cells, Caspase-Glo 3/7 luminescence, 3 h; percent of clofoctol response, vehicle zero | caspase activation, % (no concentration beside the values) | actives 0.066% (n = 330,000) | AID 2462;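 active = over half of replicate activation scores above 10%, or exactly half above 10 with the replicate mean above 10; inconclusive = replicate mean below 10 yet half the replicates above 10; inactive = over half of replicates below 10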;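 also: wells of about 30 µL received 50 nL stock; many hits fall short of the cut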
# Ecoli rRNA inh: inhibits bacterial ribosomal RNA function over humanized ribosomes. E. coli WT GFP vs humanized-ribosome RFP mutants, fluorescence, 24 h; hits give low values; DMSO median 0, no signal -100. GFP signal change (wild-type ribosome), % (test concentration not listed). actives 1.6% (n = 350,000). AID 720706;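 active = significant combined selectivity score with lowered wild-type GFP, culture density cut under 30%, mutant RFP and density less affected; inactive = any of these conditions unmet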; also: one replicate is shown; some compounds called inactive have numbers as strong as hits
# RanGTP-Impb inh: disruptors of Ran-importin-beta complex formation – biochemical, FRET, CFP-Ran, YFP-importin-beta, homogeneous, primary screen | cell-free CFP-Ran/YFP-importin-beta FRET ratio | inhibition, % (no concentration beside the values) | actives 1.1% (n = 300,000) | AID 2216;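 active = most replicates above 15%; inconclusive = exactly half above 15%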;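 also: 0% = DMSO wells and 100% = Ran loaded with GDP instead of GTP; wells of about 40 µL received 100 nL stock; the first replicate is given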
# MLL AF4-AF9 inh: blocks AF4 peptide binding to human AF9 | actives 0.47% (n = 350,000) | P42568 | AID 651704 | AlphaScreen, biotin-AF4 peptide binding to FLAG-AF9 | inhibition, % at 10 µM;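 active = every replicate reaching a set inhibition limit, whatever the replicate mean, cut at about 25% in these data; inconclusive = mean inhibition reaches that limit but some replicates miss it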;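 also: 0% = plate neutral control median and 100% = total signal loss; the record names both 10 and 1 µM as test concentration; the first replicate is given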
# Target sequence (P42568 whole entry, looked up): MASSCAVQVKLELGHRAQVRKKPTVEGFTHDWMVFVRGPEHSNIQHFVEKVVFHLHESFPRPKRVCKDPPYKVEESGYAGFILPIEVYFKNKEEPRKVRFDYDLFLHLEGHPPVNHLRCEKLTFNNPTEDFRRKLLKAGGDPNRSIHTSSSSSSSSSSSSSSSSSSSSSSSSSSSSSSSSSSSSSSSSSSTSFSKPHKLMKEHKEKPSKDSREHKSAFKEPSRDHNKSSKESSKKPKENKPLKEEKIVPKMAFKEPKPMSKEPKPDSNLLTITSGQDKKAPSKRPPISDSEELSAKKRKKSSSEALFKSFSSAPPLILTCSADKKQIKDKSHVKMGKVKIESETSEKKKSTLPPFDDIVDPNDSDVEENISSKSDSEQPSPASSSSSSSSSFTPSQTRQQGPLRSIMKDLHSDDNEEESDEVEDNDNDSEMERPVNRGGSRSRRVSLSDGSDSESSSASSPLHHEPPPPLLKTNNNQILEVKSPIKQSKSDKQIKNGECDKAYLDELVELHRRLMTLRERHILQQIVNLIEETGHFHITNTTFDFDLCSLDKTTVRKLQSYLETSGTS
# Vif A3G: HIV-1 Vif–A3G interaction blockers – biochemical, TR-FRET, GST-Vif 1-94, biotin-A3G peptide, dose response retest, primary screen (AID 1117319) | TR-FRET GST-Vif / biotin-A3G peptide binding; higher % means a stronger effect; test concentration not given here; strong numbers were not always called active | inhibition, %, or IC50 in µM where a hit was titrated | actives 0.57% (n = 260,000);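 active = above the screen mean plus three standard deviations and confirmed in dose response; inconclusive = results disagree or hit not tested in dose response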;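 also: Vif residues 1-94 fused to GST binding biotinylated APOBEC3G peptide 110-148; 0% = full assay without inhibitor and 100% = GST in place of GST-Vif; retest series ran down from 100 µM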
# T cruzi repl: T. cruzi replication inhibition. T. cruzi beta-gal in NIH3T3, luminescence, 90 h. inhibition, % (test concentration not listed). actives 1.4% (n = 300,000);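 active = mean inhibition across valid replicates above about 55%, limit read from the data; inconclusive = mean below that limit but half or more replicates reach it; inactive = mean below it, under half of replicates reach it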;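 also: signal also drops with host cell toxicity which is not excluded here; 0% = plate median of DMSO wells and 100% = zero luminescence signal; higher percent means less beta-gal luminescence so fewer parasites; stock transfer was 50 nL into about 50 µL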
# Calb FLC: affects C. albicans growth with fluconazole. C. albicans CaCi-2 (fluconazole-resistant clinical isolate) + fluconazole, Alamar Blue growth, 48 h. growth inhibition, % (test concentration not listed). actives 0.57% (n = 300,000). AID 1979;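 active = most replicates above 75%; inconclusive = exactly half above 75%; inactive = most below 75%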;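 also: all wells also contain fluconazole at 8 µg/ml as a sub-toxic cotreatment; 0% = median of DMSO wells and 100% = median of geldanamycin control wells; wells of about 8 µL received 7.5 nL stock; the first replicate is given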
# Ecoli rRNA inh OD600: recorded beside Ecoli rRNA inh, whose call it bears; OD600 change, %; measured here: OD600 growth;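 optical density of the mix in the first replicate; 0 = DMSO median and -100 = no signal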
# Ecoli rRNA inh RFP: recorded beside Ecoli rRNA inh, whose call it bears; RFP signal change, %; measured here: RFP humanized mutant strains;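 first replicate; 0 = DMSO median and -100 = no signal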
# Numbers without * were called inactive; ? = inconclusive; / = no result given; & = joins results of further samples.
Compound	Beta apoptosis	A1 inh	Ecoli rRNA inh	Ecoli rRNA inh OD600	Ecoli rRNA inh RFP	RanGTP-Impb inh	MLL AF4-AF9 inh	Vif A3G	T cruzi repl	Calb FLC
CCCC(C)c1nnc(NC(=O)CS(=O)(=O)Cc2ccccc2)s1 (centres undefined)	-5	-0.2	/	/	/	-0.7	/	4%	-5	-7
CCCCn1c(SCC(=O)c2ccc(O)c(O)c2)nc2ccsc2c1=O	-2	0.9	/	/	/	-1.1	/	15%	-48	107*
O=C(NNC(=O)c1ccc(Oc2ccc(C3SCCS3)cc2)o1)c1ccc(Cl)cc1	2	-0.3	-3	-2	16	0.7	3.7	2%	11	-4
CCOc1ccc(CCNC(=O)c2cc(S(=O)(=O)N3CCOCC3)ccc2C)cc1OCC	-4	0.4	6	8	0.4	-1.3	-1.3	5%	19	2
O=C(Nc1ccc(Oc2ccccc2)cc1)C1CCCN(c2ncccn2)C1 (centres undefined)	7	0.1	/	/	/	-2.1	/	-6%	3	-22
COC(=O)C1CCN(C2CC(=O)N(c3cc(C)cc(C)c3)C2=O)CC1 (centres undefined)	-4	-0.1	2	3	-1.1	0.0	-4.5	/	-31	9
CC(C)(C)CN1CCN(CCCc2ccccc2)C(CCO)C1 (centres undefined)	6	-0.7	12	2	2.9	2.1	0.6	/	26	-3
CC(=O)N[C@@H](Cc1ccc(O)cc1)CN1C(N)=NC[C@@H]1CC(C)C	-4	0.1	6	5	-4.6	-6.4	-27	/	-4	19
O=C(c1ccc(Cl)c(S(=O)(=O)N2CCCCC2)c1)N1CCCCC1	0	0.1	-2	-5	-1.8	-3.0	-12	-3%	11	-3
Cc1cc(Br)ccc1NC(=O)CNC(=O)c1ccc(-n2cncn2)c([N+](=O)[O-])c1	/	1.6	-1	0	-2.2	4.7	-0.2	4%	-3	7
Cc1cc([N+](=O)[O-])nn1CC(=O)N/N=C/c1ccccc1Br	-1	-0.2	9	0	1.9	-1.2	/	-3%	-12	18
Cc1ccc(-c2nnc(SCC(=O)N3CCOCC3)nc2-c2ccc(C)cc2)cc1	6	0.0	/	/	/	4.9	/	21%	19	0
COc1ccccc1CNC(=O)C1CCC(CNS(=O)(=O)c2ccc(C)cc2)CC1 (centres undefined)	4	-0.9	-6	-5	-0.3	1.5	1.9	-4%	4	6
CCCN(CC(=O)Nc1ccc(F)c(F)c1F)C(=O)c1ccc2c(=O)n3c(nc2c1)CCC3	-3	-0.7	4	1	-2.0	/	-1.0	2%	3	-8
COC(CNC(=O)c1ccc2c(c1)ncn2C1CCCCCC1)OC	-3	0.6	4	2	-0.3	7.9	-1.3	1%	-6	0
O=C(CCCN=C1NS(=O)(=O)c2ccccc21)OCc1ccc(F)cc1	0	0.5	-5	-5	1.5	7.9	1.4	1%	5	8
CC(=O)N1CCN(S(=O)(=O)c2cccc(C(=O)N(Cc3ccccc3)c3cccc(C)c3)c2)CC1	-2	0.7	4	3	1.4	3.3	2.3	-5%	51	/
CC(C)Nc1ncnc2ccc(Br)cc12	29	0.1	3	9	-7.9	-0.2	0.6	26%	-45	?
CN1CCC(=NNC(=O)C(=O)Nc2ccccc2)CC1	0	0.1	/	/	/	1.8	/	0%	-10	0
NS(=O)(=O)c1ccc(NC(=O)/C=C/c2ccccc2Cl)cc1	5	1.2	-13	-22	-3.7	1.1	3.4	9%	-20	-15
CN1c2ccccc2C(C)(C)C12CC(c1ccc(Cl)c(S(=O)(=O)N3CCCC3)c1)=NO2 (centres undefined)	7	-0.2	/	/	/	0.0	/	7%	27	4
COc1ccc(S(=O)(=O)Nc2cc(C(=O)NCCC(C)C)ccc2N2CCOCC2)cc1	-5	0.5	/	/	/	5.8	/	4%&-4%	11	10
Cc1nn(C)c(C(=O)NC(=S)Nc2ccccc2O)c1Cl	-8	0.0	-52	-79	-17	-0.7	-2.8	-4%	-4	-1
CC1CCN(S(=O)(=O)c2cn(CC(=O)N3CC(C)CC(C)C3)c(=O)c3ccccc23)CC1 (centres undefined)	8	-0.2	/	/	/	1.9	/	1%	-3	-10
COC(=O)c1cc(S(=O)(=O)NCc2ccc(S(N)(=O)=O)cc2)oc1C	-5	0.9	1	4	0.9	4.0	1.1	0%	6	3
CCOC(=O)CCC(=O)N(CCN(C(=O)CCC(=O)OCC)c1ccccc1)c1ccccc1	/	-0.1	/	/	/	?	/	2%	14	-2
COc1ccccc1OCCNC(=O)C1CCCCC1	-5	0.6	12	9	-2.8	-2.0	-0.7	/	9	-9
Cc1cc[n+](CC(=O)c2ccc3c(c2)OCCO3)cc1	-7	0.4	18	15	-0.7	5.3	-2.7	-1%	-20	8
CC1CC(C)CN(C(=O)C2CCCN(S(=O)(=O)c3cnc[nH]3)C2)C1 (centres undefined)	-5	1.0	4	10	4.1	-3.4	-19	-2%	3	-8
CCCCNC(=O)N(O)C1N(/N=C/c2ccccc2OC)C(=S)SC1(C)C (centres undefined)	-5	-0.9	3	5	2.0	2.0	7.4	-4%	-1	-2
CCc1nnc(NC(=O)CSc2nnc3ncccn23)s1	-6	0.9	4	10	-7.4	-2.0	8.7	1%	-20	4
O=C(COC(=O)c1ccc(O)cc1O)Nc1ccc2c(c1)OCCO2	-5	1.2	-12	-14	-2.7	/	-0.2	-5%	/	/
Cc1ccc(CSc2nnc(NC(=O)C3=COCCO3)s2)cc1	2	-1.8	-1	2	3.0	/	-0.2	-4%	/	/
CNC(=O)c1ccsc1NC(=O)c1ccc(S(=O)(=O)N2CCOCC2)cc1	1	-0.2	/	/	/	1.4	/	-1%	2	2
O=C(O)c1cccc(NS(=O)(=O)c2ccc(Cl)c(C(=O)O)c2)c1	1	0.3	/	/	/	-3.0	/	2%	-8	-8
COc1ccc(N2CCN(CC(=O)Nc3c(C)cc(C)cc3C)CC2)cc1	-1	-0.3	/	/	/	-0.9	/	1%	-5	-6
COC(=O)CCCC(=O)N1CCC(CCC(=O)NC2CC2)CC1	-5	1.1	14	23	2.2	1.6	-1.7	/	-11	2
Cc1ccc(CNC(=O)C(=O)NCC2OCCN2S(=O)(=O)c2ccc3c(c2)OCCO3)cc1 (centres undefined)	-3	0.1	-3	-1	-5.0	-0.1	-1.4	-10%	8	3
O=C(Nc1ccccc1Cl)C1CCCN(S(=O)(=O)c2cccc3cccnc23)C1 (centres undefined)	-2	?	-4	-7	0.5	-1.5	-4.1	/	1	-3
CCCCC(=O)OCc1cn(-c2ccc(Cl)cc2)nn1	6	0.7	/	/	/	-0.6	/	-8%	-12	26
COc1ccc(C(=O)Nc2ccc(S(=O)(=O)Nc3nccc(C)n3)cc2)cc1[N+](=O)[O-]	-1	?	15	3	8.1	4.8	-0.1	-3%	?	10
O=C(NC1CCCCC1)c1ccc(OC2CCN(Cc3ccccn3)CC2)cc1	-8	0.1	/	/	/	6.9	/	/	-12	-28
CCCc1ccc(OCCNC(=O)CC)cc1	-9	-0.4	-6	6	9.6	1.1	-40	2%	-9	-2
O=c1[nH]c2ccccc2nc1C(Nc1ccccc1)c1ccccc1 (centres undefined)	3	0.6	0	7	-6.4	6.3	-19	-5%	5	3
CC(=O)c1c(OC(=O)c2ccccc2)c2ccccc2n1C	-9	0.0	-13	-20	3.2	-1.0	/	-5%	-16	-29
COc1cc2c(cc1OC)C(COc1ccc(F)cc1)NCC2 (centres undefined)	-1	0.6	3	-3	0.9	1.4	3.5	/	20	3
O=C(O)c1cccc(CSc2ncccn2)c1	2	-1.4	2	6	2.0	-6.5	/	-2%	-15	7
Cc1cc(C)cc(NC(=O)N2CCCC2C(=O)Nc2ccc(-n3cnnn3)c(C)c2)c1 (centres undefined)	-4	0.6	/	/	/	3.0	/	-2%	11	15
O=C(CN(C(=O)CCC(=O)Nc1nccs1)c1ccccc1F)NCc1ccc2c(c1)OCO2	-9	0.7	3	8	0.3	1.6	-0.1	/	8	-11
CCC(C)(C)C1CCc2[nH]nc(C(=O)N/N=C(\C)c3ccco3)c2C1 (centres undefined)	25	-4.3	2	-15	-0.3	-1.8	-2.4	/	22	23
Cc1c(C)n(C)c2ccc(C(=O)NCCCN3CCCCC3C)cc12 (centres undefined)	0	0.2	8	7	2.7	1.5	16	/	15	2
CCOc1cc(NC(=O)c2ccccc2OC)c(OCC)cc1NC(=O)c1ccccc1	-1	0.2	3	8	5.5	-1.1	-2.1	/	2	1
CC(=O)NCCC(=O)Nc1ccc(C)c(F)c1	-5	0.2	/	/	/	-3.9	/	12%	-13	21
COc1ccc(C2(CNC(=O)c3ccccc3)CCOCC2)cc1	-3	0.1	10	-3	-1.3	-4.8	-0.9	2%	/	-8
CCOC(=O)N1CCN(C(=O)C2CCN(Cc3cccc(OCc4ccccc4)c3)CC2)CC1	0	0.2	14	6	13	-0.3	8.6	-11%	-14	-3
Cc1ccc(-c2nc3ccccc3c(=O)n2O)cc1	-1	-0.5	-10	2	2.9	-3.4	4.0	-5%	6	5
Cc1ccccc1NS(=O)(=O)c1cc2c(cc1C)N(C)CCO2	0	0.2	1	-22	1.1	?	2.0	/	12	1
O=C1COc2cccnc2N1	-4	-0.8	/	/	/	-0.9	/	?	-3	-15
O=C(/C=C/c1ncc(C(F)(F)F)cc1Cl)OCc1ccccc1	-4	-0.3	6	0	-1.2	-0.5	8.2	27%	-38	4
CCOC(=O)Cn1c(C)nc2c(C(=O)OCC)sc(C)c2c1=O	/	0.3	/	/	/	1.6	/	2%	-2	2
CCOC(=O)C1CCCN(S(=O)(=O)c2ccc3c4c2CC(=O)N4CC(C)S3)C1 (centres undefined)	-10	0.0	-2	5	2.4	-1.6	2.2	/	-1	-9
COc1ccc(C(=O)OCC(=O)Nc2ccc3c(c2)OCCO3)c(OC)c1	-6	-0.2	-6	-8	-2.3	/	1.0	-17%	/	/
COc1cccc(OC)c1C(=O)N1CCN(Cc2ccc3c(c2)OCO3)CC1	-4	0.4	/	/	/	-2.6	/	0%	-12	-12

# Compound activity: PubChem, several laboratories

# A portion of the library; count on the stated rates, not on these rows.
